# MgrA DNA FP: alters Staphylococcus aureus MgrA binding to DNA; fluorescence polarization; inhibition, %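 (about 10 µg/mL by stock and volumes)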; hit rate 0.13% among 84,000;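 active means above 50% in either of two replicates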;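 further: 0% = protein plus DNA without compound and 100% = DNA alone without protein; higher means less MgrA bound to DNA so lower polarization; one replicate is shown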
# Sa helicase inh: S. aureus DNA helicase inhibition; inhibition, %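 (tested at about 80 µM)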; hit rate 0.05% among 120,000; AID 485395; purified S. aureus helicase, fluorescence unwinding assay; about half of the hits fall short of the stated cut;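 active means both duplicates at 50% or more, or one of them with a favoured structure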;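 further: 0% = mean of negative control wells and 100% = mean of positive control wells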
# * hit, by the source's call; · = not tested or not shown. Not all compounds are listed (hit frequency here may not be typical).
# Each structure is followed by: MgrA DNA FP | Sa helicase inh
CCN(c1ccccc1)S(=O)(=O)c1ccc(N2CCN(c3ccccn3)CC2)nc1
    · | -13.0
COC(=O)C(=C/C=C/N1CCCCC1)C(=O)OC
    -1.1 | 3.0
CCCCCCCCCCC1=C(C)C(=O)C(OC)=C(OC)C1=O
    3.7 | ·
CC(C)c1ccc(NC(=O)c2cccs2)cc1
    · | -6.0
CCCC1=Nc2cc(C(=O)N3CCC(C(N)=O)CC3)ccc2Sc2ccccc21
    · | -4.0
COc1ccccc1NC(=O)c1cc2ccccc2oc1=N
    · | 2.0
COc1cc2nc(CN3CCOCC3)n(CC(=O)NCC(F)(F)F)c(=O)c2cc1OC
    · | 14.0
O=C(CN1C(=O)c2ccccc2C1=O)N1CCN(CCN2C(=O)c3cccc4cccc(c34)C2=O)CC1
    -2.1 | ·
Cn1c(=O)c(=O)n(C)c2cc(N3CCCCC3)c(NS(=O)(=O)c3ccc(Br)s3)cc21
    · | 10.0
CCOC(=O)c1ccc(N2CC(C)(C)C2=O)cc1
    0.4 | ·
Cc1cc(NCCCN2CCOCC2)nc(-c2ccccc2O)n1
    3.1 | 9.0
CCC1=NN(C(=O)C(C)C)C(O)(c2ccc(Br)cc2)C1 (stereo not drawn)
    2.0 | 1.0
Cc1cccc(C)c1NC(=O)C1NC(=O)CC1c1ccccc1 (stereo not drawn)
    -1.2 | 12.0
CCOC(=O)C1C(=O)C=C(c2ccc(F)cc2)CC1c1ccc(CC)cc1 (stereo not drawn)
    0.1 | 16.0
COC(=O)c1sccc1N=CC1=C(O)CC(C)(C)CC1=O
    · | -17.0
CC(C)n1nc(C(=O)Oc2ccc3c(c2)OCO3)c2ccccc2c1=O
    · | -6.0
CCCc1ccc(C(=O)NC(=O)c2ccccc2O)cc1
    0.5 | ·
Cc1ccc(NS(=O)(=O)c2ccc(Cl)cc2)c(N=Cc2cc(Cl)cc(Cl)c2O)c1
    -0.8 | ·
O=S(=O)(Nc1ccccn1)c1cccs1
    -3.5 | 7.0
Cn1c(=O)c2[nH]cnc2n(-c2ccccc2)c1=O
    3.5 | -1.0
CCn1c2ccccc2c2cc(C(N)=O)ccc21
    -3.8 | 10.0
CSc1c2ccccc2cc[n+]1C
    -3.1 | 13.0
Cc1ccc2oc(-c3ccccc3)cc(=NCCN3CCOCC3)c2c1
    1.4 | 39.0
Cc1cc(=O)oc2cc(NC(=O)CCC(=O)O)ccc12
    -1.1 | ·
O=C(NCCCN1CCCCC1)c1ccc2nc(N3CCCCC3)sc2c1
    -3.3 | 11.0
CCOc1ccc(CCNc2nc(-c3ccc(OC)c(OC)c3)no2)cc1
    1.1 | 4.0
C#CCN1CCOCC1
    -0.3 | -10.0
CC(Sc1nnc(N)s1)C(=O)Nc1nccs1 (stereo not drawn)
    0.3 | 18.0
C=C1SC(=Nc2ccccc2Cl)N(C(=O)c2cc(OC)c(OC)c(OC)c2)C1(C)C
    1.4 | ·
CCN1CCN(CCNC(=O)c2ccc(NC(=O)C3=CSCCO3)cc2)CC1
    · | 6.0

# Looked up by structure from the entries so far (5):
# Each structure is followed by: MgrA DNA FP | Sa helicase inh
CSc1c2ccccc2cc[n+]1C
    -3.1 | 13.0
COc1cc2nc(CN3CCOCC3)n(CC(=O)NCC(F)(F)F)c(=O)c2cc1OC
    · | 14.0
COC(=O)C(=C/C=C/N1CCCCC1)C(=O)OC
    -1.1 | 3.0
CCCc1ccc(C(=O)NC(=O)c2ccccc2O)cc1
    0.5 | ·
CCOC(=O)C1C(=O)C=C(c2ccc(F)cc2)CC1c1ccc(CC)cc1 (stereo not drawn)
    0.1 | 16.0

# (next part)
# Each structure is followed by: MgrA DNA FP | Sa helicase inh
CCOC(=O)C1=C(C)NC(C(=O)NCc2cccc(OC)c2)CS1 (stereo not drawn)
    -1.2 | 7.0
CCOC(=O)Cn1cnc(=O)c(C#N)c1C
    0.2 | 8.0
CC(C)(C)c1ccc(C(=O)NC(=O)Nc2ccccc2)s1
    -1.2 | ·
CCNc1nc(NCC)nc(N(C#N)CC)n1
    -0.7 | 3.0
NC(=S)Cc1nc2n(n1)Cc1ccccc1-2
    · | 1.0
O=C(CN1C(=O)c2cccc3cccc(c23)C1=O)N1CCN(CCN2C(=O)C3C4C=CC(C4)C3C2=O)CC1 (stereo not drawn)
    2.2 | ·
COc1cccc(NC(=O)N2CCN(C/C=C/c3ccccc3)CC2)c1
    8.1 | 16.0
O=C(CCCn1c(=O)oc2ccccc21)Oc1ccc2c(c1)OCO2
    · | -14.0
CCCCCc1ccc(S(=O)(=O)N2CCN(C(=O)OC(C)(C)C)CC2)cc1
    3.1 | ·
COc1cccc(OC)c1/C(O)=C(\C#N)c1nc2ccccc2s1
    · | 1.0
O=C(c1ccccc1)c1nnn(-c2ccccc2)c1Nc1ccccc1
    -0.1 | -11.0
N#CC1=C(N)N(c2sc3c(c2C#N)CCCCC3)C2=C(C(=O)CCC2)C1c1ccccc1 (stereo not drawn)
    -0.4 | -3.0
CCOC(=O)c1cc2ccc(OC)c(OC)c2c(=O)s1
    · | -24.0
CCOc1ccc(NC2=CC(=O)CC(C)(C)C2)cc1
    0.6 | -22.0
COC(=O)CSc1nc(N2CCOCC2)c2c(c1C#N)CC(C)(C)SC2
    0.1 | 7.0
COc1ccc2c(CC(=O)OCC(=O)c3ccccc3)coc2c1
    · | 5.0
COC(=O)Cc1nc(NC(=O)c2cc(C)oc2C(F)(F)F)sc1C
    -1.5 | ·
CC1CN(C(=O)Nc2ccc(Cl)cc2)c2ccccc2O1 (stereo not drawn)
    0.7 | -4.0
O=C(Cc1c(C(=O)O)[nH]c2ccccc12)NCCCN1CCCCCC1
    · | 19.0
CCOC(=O)c1[nH]c(C)c(C(=O)OCc2nnc(-c3ccc(Cl)cc3)o2)c1C
    · | -18.0
CCOc1ccc(N2C(=O)NC(=O)/C(=C\c3cc(Cl)c(OCC(=O)O)c(Cl)c3)C2=O)cc1
    9.5 | ·
CCCN(CC1CC1)C(=O)Nc1ccccc1C
    4.2 | 6.0
CC1CN(C(=O)COC(=O)c2ccc(I)cc2)CC(C)O1 (stereo not drawn)
    -1.5 | 5.0
COc1ccc(S(=O)(=O)NCCNc2nc3cc(C)cc(C)c3cc2C#N)cc1
    0.6 | 10.0
CCOC(=O)Nc1ccc2c(COC(=O)c3cnc(Cl)c(Cl)c3)cc(=O)oc2c1
    · | 8.0
O=C(/C=C/c1ccccc1)C1CC1
    -0.2 | 3.0
Cc1cc2ncc(C(=O)O)c(C)n2n1
    -5.0 | ·
O=C(Oc1cc(Cl)cc(Cl)c1)c1ccc(-c2ccccn2)s1
    -0.9 | ·
CCC1CCCCN1C(=O)c1noc2c1CC(C(C)(C)C)CC2 (stereo not drawn)
    · | -28.0
Cc1cccc(C)c1NC(=O)C(C)Oc1ccc(Cl)cc1Cl (stereo not drawn)
    2.4 | ·

# Next section:
# Each structure is followed by: MgrA DNA FP | Sa helicase inh
Clc1ccc(OCCCN2CCN(Cc3ccccc3)CC2)cc1
    -3.6 | ·
O=C1c2cccc3cc([N+](=O)[O-])cc(c23)C(=O)N1Cc1cccnc1
    1.6 | ·
COC(=O)c1cc2occc2n1CC(=O)N(C)C1CCCCC1
    0.9 | 14.0
O=C1C2C3C=CC(C3)C2C(=O)N1Cc1ccco1 (stereo not drawn)
    3.5 | 1.0
CCOc1ccc(-c2cc(NC(=O)Nc3ccc(F)cc3)c(C(=O)OC)s2)cc1
    -0.7 | 2.0
COc1ccc(OC)c(S(=O)(=O)N2CCC(CCCC3CCN(S(=O)(=O)c4cc(OC)ccc4OC)CC3)CC2)c1
    0.9 | ·
CCC(C)N(Cc1nc2ccccc2c(=O)[nH]1)C(=O)/C=C/c1ccco1 (stereo not drawn)
    · | 1.0
O=C(NCCc1ccccc1)c1ccc(C(=O)c2ccccc2)o1
    -0.9 | 1.0
Cc1nc(C)nc(N(Cc2ccccc2)Cc2ccccc2)n1
    -1.1 | ·
O=S(=O)(c1ccc(OC(F)(F)F)cc1)N1CCN(S(=O)(=O)c2cccs2)CC1
    · | 2.0
O=C(COC(=O)Cc1c(Cl)cccc1Cl)NCc1ccco1
    3.8 | -8.0
O=C(CSc1ncnc2ccccc12)N1CCc2ccccc21
    · | -12.0
O=C(Nc1ccnn1Cc1cccs1)C(Sc1ccccc1)c1ccccc1 (stereo not drawn)
    · | -1.0
Cc1nc(C(F)(F)F)c(-c2ncn[nH]2)s1
    0.3 | ·
CC(C1CC1)N(C(=O)c1ccccc1)c1ccccc1 (stereo not drawn)
    -2.4 | ·
O=C(Nc1ccc(Cl)cc1)c1cnn2c(C(F)(F)F)cc(C(F)(F)F)nc12
    -1.4 | ·
CNC(=O)CNC(=O)Nc1ccc(C)cc1
    · | -2.0
Cc1ccccc1C(=O)N1CCC(C(=O)Oc2ccc3c(c2)OCO3)CC1
    · | 8.0
COc1cccc(CN2c3cccc4cccc(c34)S2(=O)=O)c1
    1.9 | 4.0
CCN(CC)C(=O)CN1CCC(c2nc3ccccc3[nH]2)CC1
    · | 10.0
NNC(=O)CN1C(=O)CSc2ccc(C(F)(F)F)cc21
    -1.9 | ·
CCCCCCCc1nnc(NC(=O)c2cccs2)s1
    0.8 | 12.0
COc1ccc(C(=O)Cn2c(SC)nc3ccccc32)cc1
    -1.1 | -24.0
Cc1nc(C)c(S(=O)(=O)NCc2ccc3c(c2)CCO3)s1
    -3.0 | ·
CC(C)C(NS(=O)(=O)c1ccccc1)C(=O)NC1CCCC1 (stereo not drawn)
    -6.2 | 1.0
CC1Oc2c(C(=O)O)cccc2C1C (stereo not drawn)
    · | 12.0
CN(C)c1ccc(-c2nc3ccc4ccccc4c3c3c2CCC3)cc1
    1.7 | -2.0
FC(F)(F)c1cccc(NNC(=S)Nc2ccccc2)c1
    1.1 | ·
CC1CCN(S(=O)(=O)c2ccc3c(c2)CCN3C(=O)NCc2ccccc2)CC1
    · | 6.0
C=CCN1CCN(C(c2ccccc2Cl)c2nnnn2C2CCCCC2)CC1 (stereo not drawn)
    -0.4 | -14.0

# Later entries.
# Each structure is followed by: MgrA DNA FP | Sa helicase inh
O=C(NCC(F)(F)F)c1cccnc1Nc1cccc(C(F)(F)F)c1
    · | 15.0
COc1ccc(COCC(O)CN(C)Cc2ccc3c(c2)OCCO3)cc1 (stereo not drawn)
    · | 7.0
CC(OC(=O)c1ccc2ccccc2n1)C(=O)N(C)c1ccccc1 (stereo not drawn)
    · | -10.0
CC1(C)CC(NS(=O)(=O)c2ccc(S(=O)(=O)N3CCOCC3)cc2)CCO1 (stereo not drawn)
    0.9 | 0.0
CCOC(=O)c1cnc(-c2cccs2)nc1Nc1ccc(C)cc1
    2.1 | ·
CC1Cc2cc(S(=O)(=O)NCCC(=O)Nc3ccc(F)cc3F)ccc2N1C(=O)C1CC1 (stereo not drawn)
    · | -9.0
Cc1nc2ccc(NC(=O)c3ccc(Br)cc3)cc2s1
    0.9 | ·
NC(=S)NCc1ccncc1
    -0.9 | ·
Cc1ccccc1N1C(=O)C(Cc2ccccc2)N=C1N(CCCN1CCOCC1)Cc1ccco1 (stereo not drawn)
    · | 10.0
CN(C(=O)COC(=O)c1n[nH]c2ccccc12)c1ccccc1
    -1.1 | -20.0
S=C(SCc1ncon1)N1CCOCC1
    · | -24.0
S=c1nc2ccccc2c2nc(COc3ccccc3Br)[nH]n12
    · | -13.0
Cc1ccc(OS(=O)(=O)c2cc(C(F)(F)F)cc(C(F)(F)F)c2)c([N+](=O)[O-])n1
    -0.1 | ·
CC(C)COc1ccccc1C(=O)NC(CO)C(=O)O (stereo not drawn)
    -8.2 | 4.0
O=C(Cc1noc2ccccc12)N1CCCC1
    -1.1 | 9.0
CN(C)Cc1ccc(C(=O)O)o1
    -0.2 | -1.0
O=C(CSc1nc2c(c(=O)[nH]1)CN(Cc1ccccc1)CC2)NCc1ccccc1
    1.6 | 0.0
COc1ccccc1N(C)S(=O)(=O)c1ccc(C(=O)N2CC(C)OC(C)C2)cc1 (stereo not drawn)
    · | -8.0
CCNC(=S)N/N=C/c1ccc(C#N)cc1
    · | -14.0
CCCCn1c(SCC(=O)c2cc(C)n(C)c2C)nc2cc(S(N)(=O)=O)ccc21
    · | -6.0
CC(C)CN(CC(C)C)Cn1nc(-c2cccc(S(=O)(=O)N3CCOCC3)c2)oc1=S
    · | -14.0
CN(C)S(=O)(=O)c1ccc(NCC(=O)Nc2ccc(SC(F)F)cc2)cc1
    · | -13.0
CCC1COC(C)CN1 (stereo not drawn)
    · | 9.0
O=C(NCc1ccc2c(c1)OCO2)Oc1ccccc1
    1.4 | 0.0
Cc1ccc(S(=O)(=O)N2CCCC2c2nc3ccccc3s2)cc1C (stereo not drawn)
    · | -4.0
Cn1nnnc1SCCCNCc1ccsc1
    · | 18.0
Nn1cc(-c2ccccc2)[nH]c1=S
    · | 1.0
Cc1ccn2cc(-c3cccc(NC(=O)CCC(=O)O)c3)nc2c1
    0.2 | 5.0
O=C(Cn1ncc2ccsc2c1=O)NCc1ccccc1
    · | 0.0
CC1CN(C(=S)Nc2ccccc2)CC(C)O1 (stereo not drawn)
    -0.6 | 15.0

# Following part
# Each structure is followed by: MgrA DNA FP | Sa helicase inh
O=C(c1cnc(N2CCCC2)nc1)N1CCOCC1
    · | -25.0
O=C1/C(=C/c2ccc3c(c2)OCO3)NC(=S)N1C1CCCCC1
    · | -20.0
CC(C)NC(=O)CSc1nc2ccccc2n1CC(=O)NC(C)C
    -0.7 | 2.0
Cc1ccc(-n2c(C)ccc2-c2ccccc2)cc1
    · | 30.0
CN1CCC(=NNC(=O)Cc2cn3ccsc3n2)CC1
    · | -13.0
CCc1ccc(/C=C2/C(=O)N(c3ccccc3)N=C2C)cc1
    22.1 | -7.0
CCC(C)NC(=O)CSc1nc2ccsc2c(=O)n1-c1cccc(Cl)c1Cl (stereo not drawn)
    1.4 | 8.0
CC1=C(C(=O)OCCOc2ccccc2)C(c2cc3c(cc2Cl)OCO3)C2=C(CC(C)(C)CC2=O)N1 (stereo not drawn)
    -1.4 | ·
CCCCC(O)(c1ccc(OC)cc1)C(CN1CCOCC1)c1ccccc1 (stereo not drawn)
    -1.7 | 2.0

# Source: PubChem (ICCB-Longwood Screening Facility, Harvard Medical School)
